Compound activity (PubChem BioAssay)
CapD inh: blocks the Bacillus anthracis CapD enzyme; purified CapD enzyme, fluorescence intensity read-out; hits give low values; some hits fall short of the stated cut; z-score (no concentration beside the values); actives 0.23% (n = 140,000);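 active = z-score under -4 in either of two replicates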;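 note: stock transfer was 100 nL into about 40 µL; score is relative to mean and spread of the plate; one replicate is shown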
AID504770: E. coli YBA685 growth inhibition, screen for V. cholerae RctB inhibitors; z-score (no concentration beside the values); E. coli YBA685 rctB-dependent plasmid, OD600 growth, 3 h; hits give low values; actives 0.27% (n = 130,000);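 active = z-score under -2 on both plates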;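 note: wells of about 30 µL received 100 nL stock; score is relative to mean and SD of the test wells; the first replicate is given; strong numbers were not always called active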
* = called active by the depositor; i = inactive; nt = no result given.

The opening 5 compounds (preview)
SMILES | CapD inh | AID504770
COC(=O)C1=C(C(=O)OC)SC(=C2C(=S)C(C)(C)N(C(=O)c3ccccc3Cl)c3ccc(OC)cc32)S1 | 0.14 | nt
Cn1c(C(=O)NCCc2ccc(Cl)cc2)cc2c(=O)n(C)c3ccccc3c21 | -0.72 | -0.25
Cc1csc(C(C#N)C(=O)COc2ccc(Cl)cc2)n1 (centres undefined) | nt | 1.1
CC1(C)NC(=CC(=O)C(F)(F)F)NC1(C)C | -0.23 | 0.2
O=C(O)CC(Cc1ccc(Cl)cc1)C(=O)NCc1ccccc1 (centres undefined) | i | 0.25

The list itself, repeating the preview:
SMILES | CapD inh | AID504770
COC(=O)C1=C(C(=O)OC)SC(=C2C(=S)C(C)(C)N(C(=O)c3ccccc3Cl)c3ccc(OC)cc32)S1 | 0.14 | nt
Cn1c(C(=O)NCCc2ccc(Cl)cc2)cc2c(=O)n(C)c3ccccc3c21 | -0.72 | -0.25
Cc1csc(C(C#N)C(=O)COc2ccc(Cl)cc2)n1 (centres undefined) | nt | 1.1
CC1(C)NC(=CC(=O)C(F)(F)F)NC1(C)C | -0.23 | 0.2
O=C(O)CC(Cc1ccc(Cl)cc1)C(=O)NCc1ccccc1 (centres undefined) | i | 0.25
COc1cc(C2CC(=O)N(CC(=O)NCC3CCCO3)c3ccccc3S2)cc(OC)c1OC (centres undefined) | 1.1 | 0.05
O=C(CCC(=O)N1CCOc2ccccc21)Nc1ccccc1Cl | -0.44 | 0.7
CCCn1nc(C(=O)N(C)CCOc2ccccc2)c2ccccc2c1=O | nt | 0.3
CCOC(=O)N1CCC(N2CCCC(CO)C2)CC1 (centres undefined) | -0.3 | -0.55
CCCC12CNCC(C)(CNC1)C2=O | 0.13 | 0.2
CCn1cnc2sc(C(=O)N3CCC4(CC3)OCCO4)c(C)c2c1=O | -0.53 | nt
CC(C)CC(C(=O)Nc1cccc(C(F)(F)F)c1)N1C(=O)c2ccccc2C1=O (centres undefined) | -0.63 | -0.1
Cc1ccc(NC(=O)Cc2nn[nH]n2)cc1Cl | 0.17 | 0.15
CC(C)(C)SCC(=O)Nc1cccc2ncccc12 | nt | 0.7
O/N=C/c1ccc[n+](C/C=C/c2ccccc2)c1 | -0.27 | -0.4
COc1cccc2sc(/N=C/N(C)C)nc12 | -1.5 | nt
CC(C)(C)OC(=O)N1CCC(CNS(=O)(=O)c2cccc3cccnc23)CC1 | -0.81 | -1.1
COc1ccc(S(=O)(=O)N(CC(=O)NCCSCc2ccccc2)c2ccc(C)cc2)cc1OC | 0.24 | nt
C=COC(=O)CSc1nc(C)cc(C)c1C#N | 19 | -0.25
O=c1c2ccccc2nc2ccc(NCc3cccs3)nn12 | 2.8 | -1
Cn1cnnc1SCc1cn2ccccc2n1 | 0.02 | 0.35
COc1ccc2c(COC(=O)c3ccc4c(=O)n5c(nc4c3)CCC5)cc(=O)oc2c1 | nt | -0.15
O=S(=O)(c1ccccc1)N1CCN(S(=O)(=O)N2CCCCC2)CC1 | nt | 0.35
COc1cc(C)nc2nc(SC)nn12 | 0.65 | 1
CC(=O)c1ccccc1OC(=O)c1c(F)cccc1F | -0.045 | nt
SMILES | CapD inh | AID504770
CC1=NN(C)C(=O)/C1=N\OC(=O)c1ccc(Cl)cc1 | -1.2 | -1.5
COC(=O)c1ccc(C(=O)Nc2nc(-c3cccs3)c(C(=O)C(F)(F)F)s2)cc1 | -0.42 | nt
CC(NC(=O)/C=C/c1cccs1)C1CC2CCC1C2 (centres undefined) | -0.45 | -2.5
O=C(O)C1=C(Sc2ccc(Cl)cc2)CSC1 | -0.2 | -0.25
CC(=O)Nc1ccc(CNC(=O)c2ccc(F)cc2)cc1 | nt | 0.1
CC1CCN(C(=O)c2ccc(COc3ccccc3Cl)o2)CC1 | 0.18 | -1.4
CC(=O)N/C(=C\c1c[nH]c2ccccc12)C(=O)NC(Cc1c[nH]c2ccccc12)C(=O)O (centres undefined) | -0.53 | nt
Cc1ccc(N=NN(C)C)cc1 | -1 | -6.7*
COc1ccccc1N1CCN(S(=O)(=O)Cc2ccccc2)CC1 | -0.67 | 2.6
COC(=O)C1=C(C)N(CC(C)C)C(=O)/C1=C\c1ccco1 | -0.53 | -0.8
O=C1OCCC1Sc1nnc(COc2ccccc2Cl)n1C1CC1 (centres undefined) | nt | -0.85
NC(N)=NCC1COC2(CCCCC2)O1 (centres undefined) | -0.48 | nt
COC(=O)c1c(NC(=O)Cn2nc([N+](=O)[O-])c(Br)c2C)sc2c1CCCC2 | -1.4 | nt
CCCCN(C(=O)Cn1ncc2c1-c1cc(C)ccc1OC2)C1CCN(C(C)=O)CC1 | 0.54 | -0.55
Cc1nc(-c2c(C)[nH]c3ccccc23)cs1 | nt | 0
CCN(CC)C(=O)CCc1nc(-c2cccc(OC)c2)no1 | -0.62 | -0.9
Cc1cc(-c2ccc(S(=O)(=O)N(C)Cc3ccccc3)cc2)on1 | 0.04 | 0.5
Cc1c(Br)sc(Br)c1-c1ccccc1 | -0.18 | nt
CCC(CO)NCc1sccc1C (centres undefined) | nt | -0.2
CCSc1nnc(-c2ccccc2NC(=O)CC)c(=O)[nH]1 | -0.32 | -0.5
Cc1cc2c(cc1C)N(C(=O)CSc1nncn1C)C(C)(C)c1ssc(=S)c1-2 | -1.4 | nt
CC(=O)Oc1cc(-c2nc3ccccc3o2)cc(-c2nc3ccccc3o2)c1 | nt | -0.4
Cc1nc2ccc(NC(=O)c3ccc(S(=O)(=O)N4CCCCC4)cc3)cc2s1 | 0.28 | nt
CCOC(=O)C1OC(c2ccccc2)OC1C(=O)OCC (centres undefined) | nt | 1
CCCOc1ccccc1N1C(=O)CC(Nc2ccc(C)cc2)C1=O (centres undefined) | -0.84 | -0.95
SMILES | CapD inh | AID504770
O=C(c1ccc2c(=O)n(Cc3ccccc3)c(SCc3cccc([N+](=O)[O-])c3)nc2c1)N1CCOCC1 | -0.08 | nt
O=C(CCN1C(=O)c2ccccc2C1=O)Nc1ccc(Br)cn1 | -0.73 | nt
Cn1cc(CCCC(=O)O)c2ccccc21 | nt | -0.1
NC(=O)C1CCN(CCS(=O)(=O)c2ccccc2)CC1 | -0.27 | 0.15
CCOc1ccc(-c2cc(C(=O)NCc3ccncc3)c3ccccc3n2)cc1 | 33 | nt
CCOc1ccc(NC(=O)c2ccc(S(=O)(=O)N3CCCC3)cc2)cc1 | -0.77 | -0.8
Cc1nnc2c(-c3ccccc3)nc3ccccc3n12 | -0.78 | -0.8
N#CCC(=O)c1cccc(CSc2cccc(C(F)(F)F)c2)c1 | -0.36 | -0.8
N#CC(C#N)=C1SC=C(c2ccc(Cl)cc2)S1 | 0.56 | 0.6
COC(=O)c1ccc(Oc2nc(N)nc(N(C)C)n2)cc1 | nt | 1.8
CCOP(=O)(OCC)C(Nc1ccc([N+](=O)[O-])cc1)c1ccc(Cl)cc1 (centres undefined) | -1.3 | nt
CCOc1ccc(-n2nnc(C)c2C(=O)N2CCC(C(N)=O)CC2)cc1 | -1.3 | -1
CC1CCC2(OC1)O[C@H]1C[C@H]3[C@@H]4CC[C@H]5C[C@@H](O)CC[C@]5(C)[C@H]4CC(=O)[C@]3(C)[C@H]1[C@@H]2C (some centres undefined) | 0.81 | nt
CCc1ccc(-n2c(-c3ccco3)n[nH]c2=S)cc1 | -0.24 | nt
CCNC(=O)C1OC(n2cnc3c(N)ncnc32)C(O)C1O (centres undefined) | 0.35 | 1
NC(=S)Nc1ccccc1C(F)(F)F | 0.17 | nt
c1ccc(Cn2cc(-c3nc4ccccc4o3)cn2)nc1 | -0.43 | nt
CN(C(=O)CSc1nc(O)cc(=O)n1C1CCCC1)c1ccccc1 | nt | -0.35
CC(C)CC(=O)N1CCN(CC2CC=CCC2)CC1 (centres undefined) | -0.75 | -0.7
O=C1CCCCCC1CN1CCCCC1 (centres undefined) | 0.34 | -0.6
C=CCNC(=S)Nc1nccs1 | nt | 0.65
Cc1ccc(SCC(=O)N[C@@H]2C[C@H]3CC[C@@H]2C3)cc1 | 0.62 | 0.1
COc1ccc(-c2cnc3nc(SCCC(F)=C(F)F)nn3c2N)cc1 | -0.25 | nt
O=c1oc(-c2cccs2)nc2sc3c(c12)CCC3 | -0.16 | nt
CCOC(=O)CN1C(=O)S/C(=C\c2ccc(C(=O)O)cc2)C1=O | -0.33 | -0.3
SMILES | CapD inh | AID504770
CCCCSc1nnc2c(n1)OC1(Nc3ccccc3-2)C(=O)Nc2ccc(Br)cc21 (centres undefined) | -0.1 | nt
O=C1C=CC(=O)C(C2=C3C(=O)N(Cc4ccccc4)CC(=O)N3CCC2)=C1 | -0.61 | -0.55
CCOC(=O)C1=C(C)N(C)C(C)=C(C(=O)OCC)C1c1ccc(C)s1 | 0.57 | -0.6
CC(Oc1ccccc1)C(=O)NC1CC(C)(C)NC(C)(C)C1 (centres undefined) | 0.17 | -1.3
CC[C@H]1OC(=O)[C@H](C)[C@@H](O[C@H]2C[C@@](C)(OC)[C@@H](O)[C@H](C)O2)[C@H](C)[C@@H](O[C@@H]2O[C@H](C)C[C@H](N(C)C)[C@H]2O)[C@](C)(OC)C[C@@H](C)C(=O)[C@H](C)[C@@H](O)[C@]1(C)O | nt | -0.05
O=C(O)c1nn(CCN2C(=O)c3ccccc3C2=O)c(=O)c2ccccc12 | nt | 0
CCCc1[nH]n(-c2ccc(F)cc2)c(=O)c1C=NCc1ccccc1Cl | -0.83 | nt
O=C(O)c1ccc2c(c1)C(c1ccccc1)OC2=O (centres undefined) | 0.38 | -1
CC1CN(CC(O)COC(c2ccccc2)c2ccccc2)CC(C)O1 (centres undefined) | nt | -0.65
CN1CC=C2C(C#N)=C(N)C(C#N)(C#N)C(CCc3ccccc3)C2C1 (centres undefined) | nt | -0.1
Cc1[nH]c(=O)c(C#N)c(C)c1CCC(=O)OCc1ccc(C#N)cc1 | nt | 0.2
CCn1c(C(C#N)/C(=N\S(=O)(=O)c2cccs2)c2ccccc2)nc2ccccc21 (centres undefined) | nt | 0.55
COc1cccc(CCOC(=O)N2CCCN(Cc3ccc(Cl)c(Cl)c3)CC2)c1 | -1.1 | nt
COC(=O)c1cc(-c2cccc(N)c2)nc2ccccc12 | -0.14 | 0.45
Cc1ccc(C(c2nnnn2C(C)(C)C)N2CCC(C)CC2)cc1 (centres undefined) | nt | -2.1
COc1ccc(C2CC(=O)C3=C(C2)NC(C)=C(C#N)C3c2ccc(OC(C)=O)c(OC)c2)cc1 (centres undefined) | 37 | nt
COc1ccccc1OCCOc1ccc(F)cc1 | 0.02 | -0.35
COc1ccc(C(=O)Nn2c(SCC(=O)N3CCC(C)CC3)nc3ccccc3c2=O)cc1 | 0.23 | nt
COc1ccc(-c2nc3n(c2NC(C)(C)C)CCN(C(=O)Cc2ccccc2F)C3)cc1 | nt | -0.3
CNC(=O)CCc1cn(Cc2ccc(C)cc2)c2ccccc12 | 0.81 | 0.65
NC(=O)CSc1ccc(Cl)cc1 | -0.14 | -0.7
Cc1ccc(C2=NNC3(S2)C(=O)Nc2ccc(C)cc23)cc1 (centres undefined) | -1.8 | nt
Cc1cc(C)c(C(=O)COC(=O)c2nccnc2N)cc1C | nt | -0.35
Cc1cc(C)c(S(=O)(=O)Nc2cc3c4c(oc3c3ccccc23)CC(C)(C)CC4=O)c(C)c1 | -0.53 | nt
CC(C)N1C(=S)SC(C)(C)C1n1oc(=O)n(-c2cccc(Cl)c2)c1=O (centres undefined) | -0.1 | -0.75
SMILES | CapD inh | AID504770
CC1=C(C(=O)OCCc2ccccc2)C(c2coc3ccc(C)cc3c2=O)C2=C(CC(C)(C)CC2=O)N1 (centres undefined) | -0.45 | nt
CSC1=NC(=O)/C(=C/c2ccccc2C(F)(F)F)S1 | -0.11 | 1.4
CCc1nonc1NC(=O)COc1ccccc1OC | -0.24 | -0.45
CCC(C)C(=O)NC1CCN(Cc2c(C)nn(-c3ccccc3)c2C)C1 (centres undefined) | 0.17 | nt
CCOC(=O)C1CCN(CC(=O)N2C(C)CCCC2C)CC1 (centres undefined) | nt | 2.6
O=C1c2ccccc2S(=O)(=O)N1C(=O)c1c(Cl)nc2sccn12 | nt | 0.35
COC(=O)c1ccc(NC(=O)N2CCC(N(C)Cc3cccc(Cl)c3)CC2)cc1 | 0.095 | -0.9
Cc1cc(NC(=O)COC(=O)Cn2ccc(=O)[nH]c2=O)no1 | 0 | 0.5
CCCCC(=O)NC(Nc1cc(C)ccn1)(C(=O)OCC)C(F)(F)F (centres undefined) | -0.2 | nt
COc1ccccc1-c1cc(-c2cccs2)nc(C)c1C#N | 40 | -1.1
CCOC(=O)c1c(C)oc2c1c(C=Nc1cccnc1)c(O)c1ccccc12 | nt | 0.05
O=C(NCC1CCCO1)C1CCN(C(=O)c2ccc(Br)cc2)CC1 (centres undefined) | 0.56 | -0.45
Cc1ccc(NC(=O)c2ccc3c(=O)n(Cc4ccco4)c(=S)[nH]c3c2)cc1Cl | 16 | 0
CC(C)=CCc1c2c(c3occ(-c4ccc(O)c(O)c4)c(=O)c3c1O)C=CC(C)(C)O2 | 0.22 | 0.85
CCn1c(O)c(N=Nc2ccc(S(=O)(=O)N3CCOCC3)cc2)c(=O)n(CC)c1=S | nt | -0.8

Exported as labelled records: two of the compounds above.
O=C1c2ccccc2S(=O)(=O)N1C(=O)c1c(Cl)nc2sccn12
- CapD inh: nt
- AID504770: 0.35

CSC1=NC(=O)/C(=C/c2ccccc2C(F)(F)F)S1
- CapD inh: -0.11
- AID504770: 1.4

Compound profiles (already shown):
O=C(NCC1CCCO1)C1CCN(C(=O)c2ccc(Br)cc2)CC1 (centres undefined) reads CapD inh: 0.56; AID504770: -0.45
CCc1nonc1NC(=O)COc1ccccc1OC reads CapD inh: -0.24; AID504770: -0.45
